D2 ag: activates the human D2 dopamine receptor; DiscoveRx PathHunter D2 beta-arrestin, luminescence, 90 min; 100% = 57 uM dopamine signal; P14416; 360,000 tested, 0.084% active; activation, % (concentration not given with the values); in the data active = activation above about 40%; inconclusive = about 15% to 40%; inactive = below about 15%; note: compound concentration not given in the record; the text of the record calls up to 30% inactive
Target sequence (P14416 whole entry, looked up): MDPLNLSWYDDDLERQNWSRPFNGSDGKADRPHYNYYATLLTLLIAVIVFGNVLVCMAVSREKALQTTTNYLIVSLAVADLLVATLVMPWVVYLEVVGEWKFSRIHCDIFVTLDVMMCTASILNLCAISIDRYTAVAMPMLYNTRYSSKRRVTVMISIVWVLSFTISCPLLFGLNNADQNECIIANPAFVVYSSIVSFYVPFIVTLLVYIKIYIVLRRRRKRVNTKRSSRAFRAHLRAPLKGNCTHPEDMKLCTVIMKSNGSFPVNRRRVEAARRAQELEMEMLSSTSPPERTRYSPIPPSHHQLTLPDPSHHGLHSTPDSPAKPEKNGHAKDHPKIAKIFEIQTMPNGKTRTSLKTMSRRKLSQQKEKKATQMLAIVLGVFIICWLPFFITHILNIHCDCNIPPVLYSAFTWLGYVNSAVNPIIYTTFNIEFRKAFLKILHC
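Agonist mode: compounds alone added to overnight-plated D2 PathHunter cells for 90 min at 37 C, with 57 uM final dopamine (EC100) defining full response. Beta-arrestin recruitment detected by chemiluminescent reagent, read after 1 h at ambient temperature.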
PINK1 modulator: changes PINK1 expression. PINK1 immunofluorescence, high-content cytometry, 24 h. 410,000 tested, 0.2% active. Potency, µM (top dose mostly 76.6 µM), for the others: at the highest dose activation (PINK1 increase), most hits filed as activators. AID 624263; active = well fitted activation curve with a large enough effect; inconclusive = small, poorly fitted or top-dose-only effect; inactive = flat fitted curve, though single readings scatter; cell line not stated here;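 note: potency is the fitted concentration of half-maximal effect; % of control where 0% means no effect; nearly all actives have a fitted effect of over 65% in size; a mitochondrial uncoupler was the plate control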
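Compound titrations (5 concentrations, 24 h) on a stable cell line; DMSO and CCCP controls. Endpoint: fixed-cell PINK1 immunofluorescence with mitochondrial, cell and nuclear markers, scanned by microplate cytometer.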
gsp agonist: agonists of gsp mutant (McCune-Albright syndrome). Potency, µM (doses to about 76.9 µM), without a hit: at the top dose activation (cAMP increase), usual class: activators. AID 624287. gsp mutant cells, cAMP HTRF, 30 min; control for the full effect not named in the record. 340,000 tested, 0.13% active; active = well fitted activation curve with a large enough effect; inconclusive = small, poorly fitted or top-dose-only effect, or another doubt; inactive = no such curve, though single readings can be large or run the other way; cell line not stated here;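 note: phosphodiesterase inhibitor Ro 20-1724 added with compounds to block cAMP breakdown; potency is the fitted concentration of half-maximal effect; nearly all actives have a fitted effect of over 60% in size; about a fifth of the inactives were tested at one dose only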
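Cells stably selected in G418 were plated at 2000/well, grown 16-24 hr, then given compounds in DMSO with the PDE inhibitor […] (300 uM solution added) for 30 min at 37C; cAMP was read by HTRF.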
ClpP mod: qHTS Assay for Activators of ClpP; ATP-dependent Clp protease proteolytic subunit (Bacillus subtilis (strain 168)), P80244; purified B. subtilis ClpP, FRET peptide cleavage, 20 min; Potency, µM (highest dose often 57.5 µM), for inactives: top-dose activity change, negative = active; 340,000 tested, 1.9% active; active = well fitted falling curve with a large enough effect; inconclusive = small, poorly fitted or top-dose-only effect; inactive = no such curve, though single readings can be large or run the other way; note: potency is the fitted concentration of half-maximal effect; the source files actives as falling curves though it sought activators and does not explain the sign; nearly all actives have a fitted effect of over 65% in size; many hits overshoot -100%
Target sequence (P80244 whole entry, looked up): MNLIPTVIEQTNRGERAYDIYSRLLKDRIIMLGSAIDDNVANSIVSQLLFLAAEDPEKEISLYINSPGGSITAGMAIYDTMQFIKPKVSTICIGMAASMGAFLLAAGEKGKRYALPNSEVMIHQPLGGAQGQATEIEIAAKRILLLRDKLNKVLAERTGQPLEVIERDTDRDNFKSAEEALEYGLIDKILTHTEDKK
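Purified B. subtilis ClpP, 10 microg/mL final in Tris/HCl pH8 with KCl, BSA, glycerol and Tween-20, cleaved an Abz/nitrotyrosine-quenched decapeptide. Fluorescence (ex 320, em 430) was read at 0 and 20 min at room temperature. Delta was normalized to 5.8 microM ADEP and DMSO/no-enzyme controls.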
Menin-MLL FL inh: displaces fluorescein MLL peptide from human menin | Fluorescence polarization, fluorescein-MLL peptide displacement from menin | FP activity change, % at 61.4 µM | 290,000 tested, under 10 active | AID 1766; inconclusive = falling polarisation curve, or a change in total fluorescence; inactive = total fluorescence flat and polarisation flat or rising; no compound was filed as active; the % refers to the polarisation; negative = inhibition;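 note: % of control where 0% means no effect; inhibitors lower the polarisation; unlabelled MLL peptide was the positive control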
gsp antagonist: antagonizes gsp, the McCune-Albright syndrome mutation. gsp-mutant cells, cAMP HTRF, 30 min; control for the full effect not named in the record. 340,000 tested, 0.4% active. AID 624288. Potency, µM (titrated, usually from 76.9 µM), without a hit: at the top dose activity change, negative = inhibition, actives largely listed as inhibitors; active = falling curve of any shape with a large fitted effect; inconclusive = falling curve, mostly with a smaller effect; inactive = flat or rising curve; cell line not stated here;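 note: intracellular cAMP measured with PDE inhibitor Ro 20-1724 present during compound exposure; potency is the fitted concentration of half-maximal effect; % is set by controls: 0 for no effect and ±100 for the full control effect; nearly all actives have a fitted effect of over 65% in size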
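HTRF cAMP read-out (cAMP-d2 plus anti-cAMP antibody-K in lysis buffer, 30 min RT). Before lysis, cells are exposed to compounds with […] for 30 min at 37C in DPBS containing Ca/Mg, BSA and Tween 20.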
Sfp inh: inhibitors of Bacillus subtilis Sfp phosphopantetheinyl transferase; Biochemical Sfp PPTase activity, qHTS; Potency, µM, inactives show max response, negative = inhibition, hits mostly inhibitors; 310,000 tested, 3.5% active; Q9F4F7; AID 1490; active = well fitted inhibition curve with a large enough effect; inconclusive = small, poorly fitted or top-dose-only effect, or another doubt; inactive = no such curve, though single readings can be large or run the other way;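 note: the enzyme is Sfp with the accession as filed and its product quenches rhodamine fluorescence; potency is the fitted concentration of half-maximal effect; 0% = enzyme reaction without inhibitor and -100% = no enzyme wells; top concentration of the series not given in the record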
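Reaction rates are the 30-min fluorescence difference (ex 525, em 598 nm) in wells containing 15 nM Sfp, 5 uM rhodamine-CoA and 12.5 uM BHQ-2-YbbR at pH 7.6 with 10 mM MgCl2.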
Numbers without * were called inactive; ? = inconclusive; · = not tested or not shown; & = joins results of further samples; ! = not confirmed by another sample; [ ] = dose if it differs, or a comment.

Fields: D2 ag	gsp antagonist	Menin-MLL FL inh	PINK1 modulator	Sfp inh	gsp agonist	ClpP mod
> CSCC(C)N1CCC(n2nccc2NC(=O)CCc2ccccc2)CC1 (centres undefined)
→ -5.9	13%	?	-1.1%	10%	0%	0.0%
> COc1ccc(Cl)cc1S(=O)(=O)N(C)CC(=O)NCc1ccc2c(c1)OCO2
→ -0.6	2%	2.1	-0.7%	15%	-7%[15.4 µM]	·
> O/N=C1\CCCc2c1nc(-c1ccccc1F)n2O
→ -3.2	7%	-1.4	-2.5%	?	1%[15.4 µM]	0.1%
> Cc1ccc(S(=O)(=O)N2CCOCC2)cc1NC(=O)c1cc2ccccc2oc1=O
→ 2.5	7%	·	1.9%	·	-69%[inhibitor]	·
> CCOc1ccc(CCNC(=O)C2CCN(S(=O)(=O)N3CCOCC3)CC2)cc1OCC
→ -2.2	12%	1.7	-0.6%	14%	-32%[inhibitor]	1.2%
> COc1ccc([C@H]2CC(=O)C=C(c3cccc(Cl)c3)C2)cc1
→ -1.7	-14%	·	2.9%	·	2%	-3.3%
> O=C(COc1ccc(F)cc1)N(c1ccccn1)C1CCCCC1
→ -0.4	2%	4.6	1.0%	4%	-2%	-1.8%
> COc1ccc(CCC(=O)Nc2nccs2)cc1OC
→ 4.9	8%	-6.1	1.1%	-1%	-47%[inhibitor][15.4 µM]	·
> Cc1ccc(Cl)cc1NC(=O)Cn1c(C)csc1=O
→ 2.5	5%	·	0.2%	·	-25%	1.0%
> COC(=O)N/N=C(\C)c1ccc(Br)cc1
→ 4.4	3%	-0.4	3.0%	17%	-3%	-4.6%
> C=C(C)CNC(=S)NNC(=O)CCn1c2ccccc2c2ccccc21
→ -4.4	1%	-1.5	-1.5%	9%	10%	-2.6%
> CCN(CC)C(=O)C1=C(C)N(Cc2ccc(OC)cc2)C(=O)C(CC(=O)NCC2CCCCC2)C1 (centres undefined)
→ -11	·	·	3.3%	·	-10%	0.0%
> Cn1c(SCc2nc3ccccc3s2)nnc1-c1cccs1
→ -3.8	3%	2.0	0.4%	56µM*	18%	-19%
> Oc1ccc(-c2csc(-c3c[nH]c4ccccc34)n2)c(O)c1
→ 3.1	-1%	4.6	-0.7%	-18%	16%	-2.1%
> Cn1c(=O)[nH]c(=O)c2c1nc(NC1CCCCC1)n2CCO
→ 0.2	12%	0.0	0.7%	-1%	6%	-1.4%
> CCOC(=O)C(NC(=O)Nc1ccc(F)cc1F)(Oc1ccccc1)C(F)(F)F (centres undefined)
→ 0.5	-2%	·	10%	10%	0%	-3.8%
> CCc1ccc(C(=O)NCc2cccs2)s1
→ -0.5	6%	5.4	-0.5%[38.3 µM]	8%	2%	-0.1%
> COc1ccccc1NC(=O)COC(=O)C1CC(=O)N(c2ccc3c(c2)OCCO3)C1 (centres undefined)
→ 3.4	?	·	-0.7%	·	-27%	0.7%
> N#Cc1c(N)nc2c3c(sc(=N)c2c1N)NC(=O)CC3c1ccccc1 (centres undefined)
→ 3.0	6%	9.2	6.8%	-19%	31%	-17%
> CCNC(=O)NCCc1c[nH]c2ccc(Cl)cc12
→ -2.5	-3%	3.3	0.8%[38.3 µM]	-4%	-44%[inhibitor]	3.2%
> O=C(CSc1n[nH]c(=O)n1C1CC1)NCc1ccccc1Cl
→ -6.5	13%	-2.9	2.2%	0%	12%	-2.7%
> CCC1CN(C(=O)N2CCC(C(=O)NCc3ccc(F)cc3)CC2)c2ccccc2O1 (centres undefined)
→ -1.9	-5%	·	2.2%	17%	3%	-1.1%
> O=C(O)c1ccc(NS(=O)(=O)c2ccc3c(c2)OCCCO3)cc1
→ 0.1	13%	-0.2	2.3%	10%	4%	·
> COc1ccc(Cc2nnc(Nc3ccccc3OC)[nH]c2=O)cc1
→ -0.2	2%	2.7	5.1%	20%	-1%[15.4 µM]	·
> CCc1nnc(NC(=O)CSc2nnc(-c3ccoc3C)n2-c2ccc(C)cc2)s1
→ -0.8	-17%	-1.5	-0.5%	-4%	13%	-0.4%
> COc1cc(NC(=O)c2ccc(N3CC4CC(C3)c3cccc(=O)n3C4)c(NC(=O)c3ccncc3)c2)cc(OC)c1OC (centres undefined)
→ 5.2	-8%	-0.4	0.5%	1%	11%	0.4%
> COc1cc(/C=N/NC(=O)CCn2nc(C)cc2C)ccc1O
→ -3.2	4%	3.3	-0.8%	8%	16%	-9.5%
> CC(C)(C)OC(=O)N1CCC[C@H]1C(=O)N/N=C/c1cccc2nccnc12
→ -1.5	-2%	1.1	1.5%	?	-24%	-1.5%
> COc1ccc(C2(c3ccc(OC)cc3)NC(=O)N(Cn3nnc4ccccc4c3=O)C2=O)cc1
→ -1.9	-3%	2.2	-0.8%	10%	?	1.5%
> CCOC(=O)C1CCC(CNCc2ccccc2C)CC1 (centres undefined)
→ -0.9	-2%	-4.9	0.7%	5%	13%[15.4 µM]	-3.0%
> N#C/C(=C\c1ccccc1)C(=O)Nc1cc(S(=O)(=O)N2CCOCC2)ccc1N1CCCC1
→ 3.1	4%	0.7	7.7%	-5%	4%	·
> CCn1c(/C=C/c2ccc([N+](=O)[O-])o2)nc2ccccc2c1=O
→ -3.1	11%	?	1.2%	10%	?	-3.3%
> Cc1ccc(-n2c(N)c(C(=O)NCc3cccnc3)sc2=S)cc1
→ -2.2	-13%	2.6	8.3%	35µM*	2%	-0.4%
> C=CCNC(=O)c1cnc(-c2ccccc2)nc1-c1ccccc1
→ 4.8	-15%	1.3	2.4%	7%	-4%[15.4 µM]	-0.3%
> Fc1ccccc1Cc1noc(CN2CCCC(CN3CCOCC3)C2)n1 (centres undefined)
→ 2.6	10%	-2.6	-0.2%	15%	14%	·
> CCC1(C)CC(c2csc(N)n2)CCO1 (centres undefined)
→ 0.9	8%	1.3	-1.5%	4%	18%	-2.2%
> CC(=O)Nc1ccc(/C(C)=N/NC(=O)C2CC2c2ccccc2)cc1 (centres undefined)
→ -3.1	-13%	?	3.2%	-8%	-2%	-1.7%
> COc1ccc(-c2cc(C(=O)N3CC4(C)CC3CC(C)(C)C4)no2)cc1OC (centres undefined)
→ 0.2	-7%	3.1	9.5%	?	-13%	-7.8%
> CCCc1n[nH]c(=S)n1Cc1ccco1
→ -3.5	-3%	5.0	-1.6%	?	?	-1.2%
> C#CCNC(=O)c1cccn1-c1ncc(C(F)(F)F)cc1Cl
→ -2.6	18%	0.4	0.0%	12%	-34%[inhibitor]	·
> CN(Cc1c(F)cccc1Cl)C(=O)c1ccc(NS(=O)(=O)c2ccc3[nH]c(=O)[nH]c3c2)cc1
→ 0.0	5%	·	-0.2%	·	5%[15.4 µM]	-1.0%
> CCN(CC)C1CCN(C(=O)CCn2nnnc2CN2CCOCC2)C1 (centres undefined)
→ -0.7	11%	-4.1	2.2%	14%	1%	-1.2%
> O=C(Nc1ccc(Cl)c(S(=O)(=O)N2CCOCC2)c1)C1CCC1
→ -2.1	2%	·	2.7%	·	-1%	2.1%
> O=C(COC(=O)c1ccc(OC(F)F)cc1)Nc1cccc(S(=O)(=O)NC2=NCCC2)c1
→ -0.7	-21%	·	-0.2%	·	-43%	-1.1%
> O=c1c(O)cccc2cc(O)c(O)c(O)c12
→ -2.1	-11%	-2.9&-2.8	1.6%	6.3µM*!	-18%	1.7%
> CCCCn1nc2cc(C(=O)NCc3ccc4c(c3)OCO4)ccc2c1OCC
→ -0.8	2%	1.2	-0.6%	6%	·	4.0%
> CCN(CC)CCNC(=O)C1c2ccccc2Oc2ccccc21
→ -5.0	12%	7.7	0.8%	0%	15%	1.1%
> O=C(CSc1nc(-c2ccccc2)cs1)Nc1ccccc1[N+](=O)[O-]
→ -0.1	-11%	0.0	7.1%	3%	-3%	0.8%
> CCN1CCN(C(=S)c2ccc(OCC(=O)Nc3ccc(OC)cc3)cc2)CC1
→ -0.6	-1%	·	11%	·	25%	-3.3%
> Cc1ccc(OCc2cc(C(=O)NC(C)Cc3cnccn3)no2)cc1C (centres undefined)
→ -2.4	1%	0.6	1.1%	12%	9%[15.4 µM]	0.4%
> COc1ccc(N(C(=O)c2ccccc2OC(C)=O)C(C)C2CC2)cc1 (centres undefined)
→ -1.9	-8%	0.0	-1.2%	-4%	-4%	-0.7%
> CCN(CC)S(=O)(=O)c1cccc(NC(=O)c2ccc(SC)cc2OC)c1
→ -8.3	-15%	1.7	0.3%	19%	-10%[15.4 µM]	0.8%
> CC(C)(C)c1ccc(-n2ncc3c2CCCC3NC(=O)CCCn2cncn2)cc1 (centres undefined)
→ 2.1	-24%	-1.9	-0.2%	7%	?	-2.6%
> COC(=O)CSc1nc2ccc(NC(C)=O)cc2s1
→ -6.0	?	2.9	0.6%	29%	-19%	0.4%
> COc1ccccc1OCCNC(=O)C(=O)c1c[nH]c2ccccc12
→ -3.4	-10%	3.4	0.5%	6%	2%	-0.5%
> CCOc1ccc(C(=O)N[C@H](C(=O)Nc2ccc(OC)c(S(=O)(=O)N3CCOCC3)c2)C(C)C)cc1
→ -3.3	-7%	-1.5	0.8%	12%	?	0.1%
> COc1ccc(-n2ccc(=O)c3c2CCCC3=O)cc1
→ -1.5	4%	4.1	0.8%	-5%	-13%	-1.7%
> COC(=O)c1ccc(NC(=O)CCS(=O)(=O)c2ccc(Br)s2)cc1
→ 1.1	-18%	-1.6	-0.2%&-1.4%	6%	-26%	-1.8%&-1.1%
> CCCc1nc(SCc2ccc(OCC)cc2)n[nH]1
→ 0.8	4%	-14	-0.4%	6%	13%	·
> CC(=O)N1CCN(C(=O)c2cc(C)nc3ccccc23)CC1
→ 2.2	-1%	2.7	-0.3%	14%	-18%	-1.0%
> COc1ccc(/C=C/C(=O)O)cc1S(=O)(=O)N1CCCc2ccccc21
→ 4.0	·	1.7	-1.8%	15%	-13%[15.4 µM]	·

Screening results (PubChem)
